ALR inh – inhibitors of human ALR sulfhydryl oxidase, primary screen, biochemical, H2O2 detection, HRP-luminol luminescence, single point | FAD-linked sulfhydryl oxidase ALR (Homo sapiens), P55789 | purified ALR, DTT oxidation | inhibition, % (test concentration not listed) | hit rate 3.8% among 290,000;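 active means mean and each replicate at 75% or more; inconclusive means only one of the two met; inactive means neither met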;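 further: stock transfer was 7.5 nL into about 7.5 µL; 0% = neutral wells and 100% = wells with inactivated enzyme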
Target sequence (P55789 whole entry, looked up): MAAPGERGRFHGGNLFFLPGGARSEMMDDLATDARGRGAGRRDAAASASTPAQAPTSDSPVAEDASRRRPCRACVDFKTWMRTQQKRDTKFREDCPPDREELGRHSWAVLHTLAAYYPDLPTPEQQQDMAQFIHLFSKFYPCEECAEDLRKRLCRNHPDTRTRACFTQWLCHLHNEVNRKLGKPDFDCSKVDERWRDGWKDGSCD
Vif TR-FRET – inhibitors of Vif binding to APOBEC3G peptide, primary screen, biochemical, TR-FRET, GST-Vif 1-94, biotin-A3G peptide, dose response retest (AID 1117319); Virion infectivity factor (Human immunodeficiency virus type 1 group M subtype B (isolate …; TR-FRET GST-Vif / biotin-A3G peptide binding; higher % means a stronger effect; test concentration not given here; strong numbers were not always called active; one-dose inhibition, %; IC50 in µM for titrated hits; hit rate 0.57% among 260,000;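 active means above the screen mean plus three standard deviations and confirmed in dose response; inconclusive means results disagree or hit not tested in dose response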;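 further: Vif residues 1-94 fused to GST binding biotinylated APOBEC3G peptide 110-148; 0% = full assay without inhibitor and 100% = GST in place of GST-Vif; retest series ran down from 100 µM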
rRNA inh HTS – reduced GFP signal of wild-type E. coli, primary screen, bacterial rRNA inhibitor project, GFP/RFP fluorescence, OD600, single point. GFP signal change (wild-type ribosome), % (no concentration beside the values). hit rate 1.6% among 350,000. E. coli WT GFP vs humanized-ribosome RFP mutants, 24 h; active compounds read low; DMSO median 0, no signal -100. AID 720706, 2013;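 active means significant combined selectivity score with lowered wild-type GFP, culture density cut under 30%, mutant RFP and density less affected; inactive means any of these conditions unmet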; further: one replicate is shown; some compounds called inactive have numbers as strong as hits
FGF22 binding – binders of human FGF22 protein, primary screen, FGF22 synaptogenesis inhibitor project, biophysical, thermal shift, single point. Fibroblast growth factor 22 (Homo sapiens), Q9HCT0. recombinant FGF22 thermal shift, SYPRO orange fluorescence; percent of sucrose octasulfate shift, DMSO zero. calls only at 9.99 µM. hit rate 1.5% among 340,000. AID 651658, 2012;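 active means melting point raised past a set limit in the mean and every replicate; inconclusive means no clear call; three in four hits are not shown here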
Target sequence (Q9HCT0 whole entry, looked up): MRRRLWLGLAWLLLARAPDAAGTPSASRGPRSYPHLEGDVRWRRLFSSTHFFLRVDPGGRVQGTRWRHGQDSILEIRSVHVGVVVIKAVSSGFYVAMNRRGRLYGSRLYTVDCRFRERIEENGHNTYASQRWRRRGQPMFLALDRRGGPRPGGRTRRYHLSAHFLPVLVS
HNF4A DNA FP – change in binding of human HNF4A to DNA, primary screen, biochemical, fluorescence polarization, FITC-DNA; Hepatocyte nuclear factor 4-alpha (Homo sapiens), P41235; 1 h; activity change, % at 10 µM; hit rate 0.3% among 360,000; AID 1224865, 2016; in the data active means activity change above about 30%, passing the limit was not always enough;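 further: controls were the assay level and a saturating level of protein; the project sought stronger binding though the title names inhibitors; some compounds called inactive have numbers as strong as hits; positive values seem to mean higher polarization but the record does not say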
Target sequence (P41235 whole entry, looked up): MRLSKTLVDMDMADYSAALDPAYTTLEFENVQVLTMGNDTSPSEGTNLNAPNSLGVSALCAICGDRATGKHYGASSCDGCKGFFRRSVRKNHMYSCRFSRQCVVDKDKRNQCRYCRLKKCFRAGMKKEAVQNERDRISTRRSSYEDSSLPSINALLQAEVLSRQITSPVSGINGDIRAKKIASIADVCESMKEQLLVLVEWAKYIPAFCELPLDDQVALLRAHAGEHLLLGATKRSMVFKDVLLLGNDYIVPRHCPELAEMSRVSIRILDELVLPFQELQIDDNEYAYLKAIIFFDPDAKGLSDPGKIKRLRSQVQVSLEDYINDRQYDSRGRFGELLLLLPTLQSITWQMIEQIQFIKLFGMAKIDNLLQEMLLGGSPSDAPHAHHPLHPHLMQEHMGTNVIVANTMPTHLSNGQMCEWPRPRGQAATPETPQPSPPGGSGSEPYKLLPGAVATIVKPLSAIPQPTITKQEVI
E coli growth – E. coli growth inhibition, primary screen, OD600. OD600 absorbance (concentration not given with the values). Escherichia coli growth, 23 h; active compounds read low. hit rate 0.21% among 330,000;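 active means OD600 absorbance below the run mean of sample wells minus 3.6 SD, in any replicate, cut at about 0.56 in these data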;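 further: stock transfer was 300 nL into about 60 µL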
AF4-AF9 inh – inhibitors of AF4 peptide binding to AF9, primary screen, biochemical, AlphaScreen, biotin-AF4 peptide, FLAG-AF9, single point | inhibition, % at 10 µM | hit rate 0.47% among 350,000;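 active means every replicate reaching a set inhibition limit, whatever the replicate mean, cut at about 25% in these data; inconclusive means mean inhibition reaches that limit but some replicates miss it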;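 further: 0% = plate neutral control median and 100% = total signal loss; the record names both 10 and 1 µM as test concentration; the first replicate is given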
rRNA inh HTS OD600 – second read-out of rRNA inh HTS, no call of its own (marks repeat the call); OD600 change, %; measured here: OD600 growth;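 optical density of the mix in the first replicate; 0 = DMSO median and -100 = no signal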
rRNA inh HTS RFP – second read-out of rRNA inh HTS, no call of its own (marks repeat the call); RFP signal change, %; measured here: RFP humanized mutant strains;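 first replicate; 0 = DMSO median and -100 = no signal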
* = called active by the depositor; i = inactive; ? = inconclusive; . = no result given; + = active, no number. This is a subset; count on the stated rates, not on these rows.

The line under a structure holds: ALR inh, Vif TR-FRET, rRNA inh HTS, rRNA inh HTS OD600, rRNA inh HTS RFP, FGF22 binding, HNF4A DNA FP, E coli growth, AF4-AF9 inh
COc1ccc([C@H]2CC(=O)C[C@@H](CCn3cc(-c4ccncc4)nn3)O2)cc1
 : ., ., 16, 10, 1.1, i, 5.6, ., -1.2
CC(Sc1ncn[nH]1)C(=O)c1c(N)n(C)c(=O)n(C)c1=O (configuration not stated)
 : -2, -17%, 14, 6, 0.2, i, -0.5, 0.62, -2.7
Cc1ccc(S(=O)(=O)Nc2ccc3c(c2)C(=O)N([C@@H](C)CO)C[C@@H](C)[C@@H](CN(C)C(=O)Nc2ccc4c(c2)OCO4)OCCCC[C@H](C)O3)cc1
 : ., ., 0, -4, -3.9, i, ., ., 0.8
CN(C)c1ccc(C(C(=O)NC2CCCCC2)N(Cc2ccco2)C(=O)c2snc(C(N)=O)c2N)cc1 (configuration not stated)
 : 1, ., 3, -14, 5.3, i, 2.2, 0.6, 14
CCOC(=O)NC(=O)c1cn(CCN(C)C)c(=O)[nH]c1=O
 : -2, ., 8, 13, -0.7, i, 4.3, 0.67, -4.5
CCN(CC)c1ccc2cc(C(=O)Nc3ccccn3)c(=O)oc2c1
 : -4, 16%, ., ., ., ., 32, 0.72, .
CC(C)Oc1ccc(CNC(=O)Oc2ccccc2)cc1
 : 9, ., -8, -12, -2.9, i, -1.3, 0.67, -1.9
COCCCn1c(C(=O)N2CC(C)OC(C)C2)cc2c(=O)n3ccccc3nc21 (configuration not stated)
 : -2, ., 8, -1, -1.4, ., 1.8, 0.72, -2.4
CN1CCN(C(=O)C[C@@H]2CC[C@@H]3[C@H](COc4ccc(NC(=O)C5CCC5)cc4C(=O)N3C)O2)CC1
 : ., ., 3, -2, -3.9, i, ., ., -4.2
COC(=O)CN(c1ccc(F)cc1)S(=O)(=O)c1ccc2c(c1)OCCO2
 : -4, 3%, ., ., ., ., -0.4, 0.7, .
CCc1cccc(C)c1NC(=O)CSc1nc2ccccc2n1CC(=O)N(C)C
 : 3, 15%, 2, 2, 2.1, i, 0.7, 0.69, 7.3
CNC(=O)C[C@@H]1CC[C@H]2[C@H](COc3ccc(NS(=O)(=O)c4cccc(F)c4)cc3C(=O)N2C)O1
 : ., ., -3, -3, -0.5, i, ., ., -1.0
CCCC1CCC(=NNC(=O)OC(C)(C)C)CC1 (configuration not stated)
 : 5, ., 10, 23, 4.6, i, 2.0, 0.71, -0.8
CN(Cc1cc(=O)n2ccsc2n1)Cc1nc2ccccc2c(=O)[nH]1
 : -17, 8%, 22, 19, 1.5, i, -1.4, 0.69, 7.2
O=[N+]([O-])c1cccc(/C=N/N2CCN(Cc3ccc(Cl)cc3)CC2)c1
 : -4, -5%, -7, -7, -0.3, i, 3.1, ., 10
CO[C@@H]1CN(C)C(=O)c2ccc(NC(C)=O)cc2OC[C@@H](C)N(C(=O)Nc2ccccc2F)C[C@H]1C
 : ., ., 0, 4, -1.1, i, ., ., 0.0
COc1ccc(NS(=O)(=O)c2cccc(C(=O)NNC(=O)c3ccccc3OC)c2)cc1
 : 2, -1%, -10, -7, 8.6, i, -1.1, 0.69, 2.5
CC1(C)CC(NC(=O)c2cccc3ccccc23)CC(C)(C)N1
 : -7, 9%, ., ., ., ., 2.1, 0.68, .
COc1cccc(OCc2ccc(Cl)cc2)c1C#N
 : -8, 23%, 2, 7, 3.2, i, 0.3, 0.69, -0.9
Cc1cc2c(c(=O)n1Cc1cccnc1)C(c1ccccc1)C(C#N)=C(N)O2 (configuration not stated)
 : -1, -3%, ., ., ., ., -1.2, 0.71, .
CNS(=O)(=O)c1cc(OCC(N)=O)c(C)cc1Cl
 : 0, -12%, ., ., ., ., 0.4, 0.73, .
CCN(CC)CCn1c2c(c(SCC(=O)Nc3cc(OC)cc(OC)c3)nc1=O)CCC2
 : 96*, 3%, 8, 7, -2.0, i, -4.3, 0.64, 0.8
CC(C(=O)NCCc1ccccc1)N1c2cccc3cccc(c23)S1(=O)=O (configuration not stated)
 : -34, ., 1, 0, 0.6, i, 1.5, 0.71, -0.7
O=C(NCc1ccccc1Cl)c1ccc2nnsc2c1
 : -2, -10%, 3, 3, 0.5, i, 1.1, 0.72, -4.5
CO/N=C/NC(=O)N1OC[C@@H]2COc3ccc4ccccc4c3[C@@H]21
 : -7, -3%, ., ., ., ., -2.2, ., .
COc1ccc(S(=O)(=O)N2CCCCC2)cc1NC(=O)CCCNC(=O)c1ccc(Cl)cc1
 : -15, ., ., ., ., i, -5.8, 0.65, 2.5
COc1ccc(-c2csc(NC(=O)CCNC(=O)c3ccco3)n2)cc1OC
 : 9, ?, -17, -34, 5.7, i, 3.9, 0.67, 4.7
COc1cccc(S(=O)(=O)N(C)C[C@@H]2OCc3ccccc3-c3ccccc3C(=O)N([C@H](C)CO)C[C@@H]2C)c1
 : ., ., -3, -20, 1.8, i, ., ., 5.8
CCS(=O)(=O)N1CC(=O)N2[C@H](CO)[C@@H](c3ccc(-c4ccccc4F)cc3)[C@@H]2C1
 : ., ., 0, -1, 0.0, +, ., ., -1.7
COc1ccc(NC(=O)c2cc(C3CCCCN3C(=O)CCCc3ccccc3)on2)c(C)c1 (configuration not stated)
 : ., ., -18, -43, -2.6, i, -2.1, ., 2.4

Some of the entries above in another layout.
SMILES: COc1cccc(S(=O)(=O)N(C)C[C@@H]2OCc3ccccc3-c3ccccc3C(=O)N([C@H](C)CO)C[C@@H]2C)c1
  ALR inh = .	Vif TR-FRET = .	rRNA inh HTS = -3	rRNA inh HTS OD600 = -20	rRNA inh HTS RFP = 1.8	FGF22 binding = i	HNF4A DNA FP = .	E coli growth = .	AF4-AF9 inh = 5.8

SMILES: CCS(=O)(=O)N1CC(=O)N2[C@H](CO)[C@@H](c3ccc(-c4ccccc4F)cc3)[C@@H]2C1
  ALR inh = .	Vif TR-FRET = .	rRNA inh HTS = 0	rRNA inh HTS OD600 = -1	rRNA inh HTS RFP = 0.0	FGF22 binding = +	HNF4A DNA FP = .	E coli growth = .	AF4-AF9 inh = -1.7

Remaining list, next part
The line under a structure holds: ALR inh, Vif TR-FRET, rRNA inh HTS, rRNA inh HTS OD600, rRNA inh HTS RFP, FGF22 binding, HNF4A DNA FP, E coli growth, AF4-AF9 inh
Cc1c(-c2n[nH]c(=S)n2-c2ccc(C(F)(F)F)cc2)nnn1-c1ccccc1
 : 1, 26%, ., ., ., ., -0.3, ., .
CCS(=O)(=O)N1CCC2(CC1)CN(C(=O)Nc1c(C)noc1C)[C@@H](CO)c1[nH]c3cc(OC)ccc3c12
 : ., ., 2, -13, 1.0, i, ., ., -3.1
Cc1ccc2nc(NC(=O)CSCC(=O)Nc3cc(C)on3)sc2c1
 : 2, -17%, 3, 8, 2.9, i, 4.3, 0.64, 0.5
COc1ccc(O)c(C(=O)c2cnc3onc(C(C)C)c3c2)c1
 : 19, 29%, ., ., ., ., 4.3, 0.63, .
C[C@H](CO)N1C[C@H](C)[C@@H](CN(C)CC2CC2)Oc2ccc(N(C)C)cc2CC1=O
 : ., ., -1, 2, 1.1, i, ., ., 0.3
C[C@H](CO)N1C[C@H](C)[C@H](CN(C)S(=O)(=O)c2ccc(F)cc2)Oc2cc(C#Cc3ccncc3)ccc2S1(=O)=O
 : ., ., -2, 0, 6.8, i, ., ., -2.8
O=C(COC(=O)c1ccncc1)Nc1ccc2c(c1)OCO2
 : -3, -7%, 8, 14, -1.2, i, 4.8, 0.73, -1.8
O=C(O)c1ccc([N+](=O)[O-])c(CS(=O)(=O)c2ccccc2)c1
 : 25, -3%, 4, 5, -1.3, i, -1.5, 0.66, 0.7
O=C(NCCc1ccccc1)N1CCCC(CNS(=O)(=O)Cc2ccccc2)C1 (configuration not stated)
 : -6, -2%, -7, -4, -1.1, i, -1.6, 0.67, 0.0
OC[C@@H](O)[C@@H](O)CO
 : -33, ., 9, 0, -3.0, i, 2.5, 0.76, -1.5
Cc1onc(-c2ccccc2)c1C(=O)c1ccccc1
 : 0, -4%, -3, -1, 3.0, i, 0.6, ., -4.3
O=C(COC(=O)c1ccccc1)Nc1ccc(Cl)cn1
 : -1, 4%, 13, 14, -2.0, i, 5.1, 0.67, 1.3
C[C@H]1CN([C@@H](C)CO)S(=O)(=O)c2ccc(C#Cc3ccncc3)cc2O[C@H]1CN(C)C(=O)c1ccncc1
 : ., ., -4, -2, 2.2, i, ., ., -3.7
CSc1ccc(C=NNc2ccc(S(=O)(=O)Nc3ccccc3C(=O)O)cc2[N+](=O)[O-])cc1
 : 7, -2%, 19, 14, 5.0, i, -64, 0.71, 7.0
CCCCn1c(-c2cccc(C)c2)nc2cc3[nH]c(=O)c(C(C)C)nc3cc21
 : -32, ., -30, -62, 14, i, 5.5, 0.7, 2.0
CCC(=O)N1CCC1(C)C(=O)NCc1ccc(SC)cc1 (configuration not stated)
 : ., ., 3, 2, -0.6, i, 0.6, ., 1.5
CCOc1ccccc1N1CCN(C(=O)c2cc3ccccc3cc2OC)CC1
 : ., 1%, -16, -17, 0.1, i, 2.1, 0.73, -5.2
Cn1cnc(S(=O)(=O)N2CCCCN3[C@H](CO)[C@@H](c4ccc(-c5ccc(F)cc5)cc4)[C@@H]3C2)c1
 : ., ., 6, -10, 3.0, i, ., ., -0.2
C/C=C/c1ccc([C@H]2[C@@H](C#N)N(S(=O)(=O)c3cccc(F)c3)[C@H]2CO)cc1
 : ., ., -6, -22, 0.2, i, ., ., 4.4
NC(=O)c1cc(N2C(=O)C3CC=CCC3C2=O)ccc1N1CCCCC1 (configuration not stated)
 : -3, 9%, ., ., ., ., -1.8, 0.66, .
COc1ccc2c(c1)c1nc3n(c(=O)c1n2CC(=O)Nc1cc(C)[nH]n1)CCS3
 : 16, 2%, 22, 11, 5.5, i, ., 0.71, -3.1
COCCOc1ccc(C(F)(F)F)cc1NC(=O)COC(=O)C1=COCCO1
 : -5, -2%, -1, 1, -1.4, i, -5.0, 0.7, 0.2
O=C(Nc1cccc(C(F)(F)F)c1)N1CCN(C(=O)Nc2cccc(C(F)(F)F)c2)CC1
 : -15, 4%, ., ., ., ., -2.7, 0.71, .
CCOc1ccc(N(CC(=O)NC2CCCCC2)C(=O)CCC(=O)Nc2ccccn2)cc1
 : ., ., 0, 7, -0.8, i, -3.6, 0.72, 0.1
C[C@@H]1CN([C@@H](C)CO)C(=O)c2cccc(NC(=O)c3nc4ccccc4s3)c2O[C@H]1CN(C)C(=O)NC1CCCCC1
 : ., ., -5, -13, -0.4, i, ., ., 0.7
COc1ccc(NC(=O)Nc2cccc3c2O[C@@H](CN(C)S(=O)(=O)c2ccc(OC)cc2)[C@H](C)CN([C@@H](C)CO)C3=O)cc1
 : ., ., -4, -3, 2.3, i, ., ., 1.0

Compound activity: PubChem BioAssay, several laboratories
